TRPML1 agonist – qHTS for Agonists of the Human Mucolipin Transient Receptor Potential 1 (TRPML1). actives 0.12% (n = 410,000). TRPML1-expressing cells, Ca2+ dye fluorescence, FDSS; host cell line not named in the record; reference of the full effect not given here. Mucolipin-1 (Homo sapiens), Q9GZU1. activation, % (concentration not given with the values); in the data active = activation above about 50%; inconclusive = about 30% to 50%; inactive = below about 30%; note: 0% is about no effect; the text of the record puts the active cut at 80%
Target sequence (Q9GZU1 whole entry, looked up): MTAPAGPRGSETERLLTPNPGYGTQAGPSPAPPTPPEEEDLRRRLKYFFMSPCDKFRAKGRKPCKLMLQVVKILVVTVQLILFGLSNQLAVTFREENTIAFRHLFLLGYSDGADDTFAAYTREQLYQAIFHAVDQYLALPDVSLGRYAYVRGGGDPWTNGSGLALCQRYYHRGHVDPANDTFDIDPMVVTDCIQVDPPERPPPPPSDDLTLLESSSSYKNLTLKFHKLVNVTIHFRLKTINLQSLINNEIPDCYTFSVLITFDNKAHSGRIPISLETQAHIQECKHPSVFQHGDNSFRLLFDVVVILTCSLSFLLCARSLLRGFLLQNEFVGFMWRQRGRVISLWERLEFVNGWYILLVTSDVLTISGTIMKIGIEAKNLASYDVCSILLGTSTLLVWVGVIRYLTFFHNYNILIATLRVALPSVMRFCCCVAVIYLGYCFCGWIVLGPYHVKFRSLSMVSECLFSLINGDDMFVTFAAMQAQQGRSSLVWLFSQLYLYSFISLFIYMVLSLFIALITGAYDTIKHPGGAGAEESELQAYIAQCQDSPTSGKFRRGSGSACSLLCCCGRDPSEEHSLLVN
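TRPML1-DL cells, Tet-induced overnight (~16 h, 37 degrees C), loaded 45-90 min at room temperature with Ca8 no-wash calcium dye plus quencher. FDSS fluorescence: 10 s baseline, compound pin-transfer, 110 s agonist read, then EC80 54-4 (4uM final) and 110 s antagonist read.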
ClpP mod – qHTS Assay for Activators of ClpP; Potency, µM (highest dose often 57.5 µM), inactives show at the highest dose activity change, negative = active; ATP-dependent Clp protease proteolytic subunit (Bacillus subtilis (strain 168)), P80244; purified B. subtilis ClpP, FRET peptide cleavage, 20 min; actives 1.9% (n = 340,000); active = well fitted falling curve with a large enough effect; inconclusive = small, poorly fitted or top-dose-only effect; inactive = no such curve, though single readings can be large or run the other way; note: potency is the fitted concentration of half-maximal effect; the source files actives as falling curves though it sought activators and does not explain the sign; nearly all actives have a fitted effect of over 65% in size; many hits overshoot -100%
Target sequence (P80244 whole entry, looked up): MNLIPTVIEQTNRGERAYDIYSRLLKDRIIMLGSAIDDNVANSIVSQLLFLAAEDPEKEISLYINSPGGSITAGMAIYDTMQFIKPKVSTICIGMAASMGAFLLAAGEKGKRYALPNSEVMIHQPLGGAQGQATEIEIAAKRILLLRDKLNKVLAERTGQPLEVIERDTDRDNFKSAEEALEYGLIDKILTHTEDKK
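Buffer: 100 mM Tris/HCl pH8, 100 mM KCl, 0.05% low protease BSA, 2.5% glycerol, 0.01% Tween-20. ClpP 10 microg/mL final; 20 min RT; delta FRET normalized to ADEP and DMSO controls.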
Numbers without * were called inactive; ? = inconclusive. An excerpt; count on the stated rates, not on these rows.

| Structure | TRPML1 agonist | ClpP mod |
| --- | --- | --- |
| CCCCN(C)c1c(C)nc2ccc(C(=O)N(C)Cc3ccco3)cn12 | -1.1 | -8.0% |
| O=C(NCc1ccc(F)cc1F)[C@@H]1CCCN1C(=O)[C@@H]1CCCN1C(=O)c1ccccc1 | -1.0 | 0.5% |
| CC(=O)c1ccc(Nc2nc(C(N)COCc3ccccc3)cs2)cc1 (stereo not given) | -0.6 | -8.9% |
| COC(=O)c1ccc2nc(-c3ccco3)c(Cc3ccccc3C(F)(F)F)n2c1 | -0.2 | ? |
| COc1ccc(C(c2nnnn2C2CCCC2)N2CCN(C/C=C/c3ccccc3)CC2)cc1 (stereo not given) | -0.7 | -3.3% |
| Nc1c(Br)cc(/C=C/c2ccnc3ccccc23)cc1Br | -0.3 | -3.5% |
| CC(C)CN(C)c1ccc(/C=C2\C=Cc3ccccc32)cc1 | -0.7 | -0.1% |
| O=C(NCc1cccs1)c1ccc2sc([C@H]3C[C@H](O)[C@@H](CO)O3)nc2c1 | -0.3 | 1.2% |
| O=C(Nc1ccc(F)c(Cl)c1)c1cc(C2CCCCN2C(=O)c2cccs2)on1 (stereo not given) | 2.0 | -16.3% |
| OC(c1ccc(F)c(F)c1)c1ncc(-c2ccc(Cl)cc2)[nH]1 (stereo not given) | -0.9 | 0.6% |
| COc1ccc(C(=O)N=c2nc(-c3ccccc3)n(-c3ccccc3)s2)cc1 | -0.3 | -2.1% |
| CC(=O)c1cc2cccc(OC3(C)CCN(Cc4ccc(-c5ccccn5)cc4)C3)c2o1 (stereo not given) | -0.3 | -4.3% |
| COc1cc(-c2cc3nc(NCc4cccs4)ccn3n2)cc(OC)c1OC | -0.6 | 4.7% |
| c1ccc(CC[n+]2ccncc2)cc1 | -0.2 | -1.3% |
| Cc1ccc2[nH]c(=O)c(CN(Cc3ccccc3)Cc3nnnn3Cc3ccccc3)cc2c1 | -0.4 | ? |

Continued:
| Structure | TRPML1 agonist | ClpP mod |
| --- | --- | --- |
| O=C(NCCNC(=O)c1ccc(Cl)cc1Cl)c1ccc(Cl)cc1Cl | -0.9 | 1.3% |
| CN(NC(=O)C(=O)NCc1ccco1)C(=O)Nc1ccc(Cl)cc1 | -0.2 | 1.2% |
| O=c1[nH][nH]c2c1[C@H](c1ccc(F)cc1)O[C@H](CCC(F)(F)F)C2 | 0.0 | -6.3% |
| CCc1nc2ccc(C(=O)NCCOc3ccc(OC)cc3)cn2c1N(CC)Cc1ccc(OC)c(OC)c1 | -1.0 | -1.7% |
| CN1CCCCC1(C)C(=O)NCc1ccc(C(C)(C)C)cc1 (stereo not given) | -0.2 | 1.8% |
| CCNC(=O)c1cc2c(c(-c3cccc(-c4ccccc4F)c3)n1)[C@@H](CCO)N(C(=O)CC)C2 | -0.2 | -14.3% |
| COc1ccc(NC(=O)C2(C)CCN2C(=O)C(C)C)cc1F (stereo not given) | -0.7 | -1.9% |
| COc1cccc(-c2cnc3c(NC(C)=O)cc(-c4cccc(C(=O)NCCN(C)C)c4)cn23)c1 | -1.0 | -7.8% |
| COCCNC(=O)C1CCCN(Cc2ccc(-c3ccccc3)cc2)CC1 (stereo not given) | 0.0 | -1.2% |
| CCOC(=O)[C@]12CCCC=C1N(Cc1ccco1)C(=O)[C@H](CC(=O)N1CCN(C(=O)C3CC3)CC1)C2 | -0.5 | 0.4% |
| CC1(C(=O)NS(=O)(=O)c2ccc(C#N)cc2)CCN1C(=O)C1(c2ccccc2)CC1 (stereo not given) | -0.5 | -1.2% |
| CC1(C(=O)NS(=O)(=O)c2ccc(F)cc2F)CCN1C(=O)c1cccc(F)c1 (stereo not given) | -0.5 | 1.6% |
| CC(=O)Nc1cccc(-c2cc3nc(NCc4cccnc4)n(C)c(=O)c3s2)c1 | -1.0 | -19.5% |
| CC1(C(=O)Nc2ccccc2Cc2ccccc2)CCN1Cc1ccccc1Cl (stereo not given) | 0.6 | -7.3% |
| C[C@@H]1CC2=C(C(=O)OC(C)(C)O2)[C@@H](C2CC2)O1 | -0.3 | 0.7% |

The results go on.
| Structure | TRPML1 agonist | ClpP mod |
| --- | --- | --- |
| CCCCCCCCCCCCCC(=O)Nc1ccc(/C=C/c2ccnc3ccccc23)cc1 | -0.2 | -3.5% |
| CC(=O)Nc1cccc(-c2csc(C(C)(NC(C)=O)c3ccccc3)n2)c1 (stereo not given) | -0.5 | -2.8% |
| CCCCNC(=O)C1(C)CCN1C(=O)c1ccc2ccccc2n1 (stereo not given) | -0.4 | 1.1% |
| NC(CCc1ccccc1)c1csc(NC(=O)Nc2ccccc2Oc2ccccc2)n1 (stereo not given) | -0.1 | -1.9% |
| Nc1[nH]c(C(=O)c2ccccc2)c(-c2ccccc2Br)c1C(=O)NCc1ccc(-c2ccccc2)cc1 | -0.3 | -3.0% |
| CC1(C(=O)NS(=O)(=O)c2ccc(F)cc2F)CCN1C(=O)C/C=C/c1ccccc1 (stereo not given) | -0.4 | -3.4% |
| NC(=NCc1ccccc1)NN=Cc1ccnc2ccccc12 | -0.9 | -1.4% |
| CN(C)c1ccc(-c2nnc(SCC(=O)NCc3ccco3)n2C)cc1 | -0.7 | -8.1% |
| COC(=O)Cn1c(C(=O)N2CCCC2)cc2c1C[C@H]1CN(C(=O)c3ccccc3)[C@@](Cc3ccc(OC)cc3)(C(=O)OC)[C@@H]21 | 0.4 | 0.1% |
| COc1ccccc1-c1noc2c1C(=O)N(Cc1cn(Cc3ccccc3)nn1)CC2 | 0.0 | -23.3% |
| O=C(NC1CCCC1)c1cnn2c1NC(=C1CC1)C=C2C(F)F | -1.0 | -4.5% |
| COc1ccc(-c2cnc3c(NC=O)cc(-c4ccc(S(C)(=O)=O)cc4)cn23)cc1OC | -1.0 | -8.8% |
| CC1(C(=O)NS(=O)(=O)c2ccc3c(c2)CCO3)CCN1C(=O)CCC1CCCC1 (stereo not given) | -0.3 | 0.9% |
| CCc1nc2ccc(C(=O)N(C)C(C)C)cn2c1N(CCC(C)C)CCN(C)C | -0.7 | -1.8% |
| CC1(C(=O)NS(=O)(=O)c2ccc3ccccc3c2)CCN1C(=O)CC1CCCCC1 (stereo not given) | -0.5 | -0.9% |

Full records, quoted from the list. Screens in order: TRPML1 agonist, ClpP mod
`CC1(C(=O)NS(=O)(=O)c2ccc(F)cc2F)CCN1C(=O)C/C=C/c1ccccc1` (stereo not given) across the screens: -0.4, -3.4%
`COc1ccccc1-c1noc2c1C(=O)N(Cc1cn(Cc3ccccc3)nn1)CC2` across the screens: 0.0, -23.3%
`CC1(C(=O)NS(=O)(=O)c2ccc3ccccc3c2)CCN1C(=O)CC1CCCCC1` (stereo not given) across the screens: -0.5, -0.9%

Later entries.
| Structure | TRPML1 agonist | ClpP mod |
| --- | --- | --- |
| COc1ccc(CN2CCC2(C)C(=O)Nc2cccc(NS(C)(=O)=O)c2)c2ccccc12 (stereo not given) | -0.8 | -9.5% |
| CCCCCCCCCCCCCCCC[n+]1ccc(/C=C/c2c[nH]c3ccccc23)cc1 | 16.5 | -1.1% |
| CN(Cc1ccccc1)C(=O)[C@@H]1CCCN1C(=O)[C@@H]1CCCN1C(=O)c1c(F)cccc1F | -0.5 | 1.4% |
| N#Cc1c2c(c(Cl)n3c1nc1ccccc13)CCCC2 | -0.3 | -26.2% |
| COC(=O)C1CCN(C2CN(Cc3ccc(F)cc3)S(=O)(=O)C2)CC1 (stereo not given) | -0.6 | 1.7% |
| CC(O)(c1ccccc1)c1nc(-c2cccc(C(F)(F)F)c2)cs1 (stereo not given) | 0.4 | -1.5% |
| Cc1cc(OCCCN2CCC(C(O)(c3ccccc3)c3ccccc3)CC2)ccc1Br | 0.7 | 1.1% |
| CCn1nnc2c(N3CCCC3)ncnc21 | -0.6 | 0.2% |
| COc1cccc(Nc2nc(CN)cs2)n1 | 0.2 | -6.6% |
| CC1(C(=O)NS(=O)(=O)c2ccc(Br)cc2)CCN1C(=O)C1CCCCC1 (stereo not given) | -0.7 | -0.2% |
| COc1cccc(CNC(=O)[C@@H]2CCCN2C(=O)[C@@H]2CCCN2C(=O)c2cccc(Cl)c2)c1 | -1.0 | 0.4% |
| CC(C)NC(=O)c1cc(-c2ccc(F)cc2OC(C)C)n[nH]1 | -0.8 | -1.4% |
| C=CCN(CC=C)Cc1cc(=O)oc2cc(C)cc(C)c12 | -0.5 | 0.8% |
| CC1(C(=O)Nc2ccccc2Br)CCN1C(=O)Cc1ccc(Cl)cc1Cl (stereo not given) | -0.9 | 2.0% |
| COc1ccc(C(C)(NC(C)=O)c2nc(-c3ccccc3OC)cs2)cc1 (stereo not given) | -0.6 | 1.0% |

Following part
| Structure | TRPML1 agonist | ClpP mod |
| --- | --- | --- |
| CCOc1ccc(NC(=O)CSc2nnc3c(n2)[nH]c2ccc(S(=O)(=O)N4CCCCC4)cc23)cc1 | -0.2 | -3.3% |
| COc1ccc(NC(=O)C2Cc3c(-c4cccc(C(N)=O)c4)ccnc3O2)cc1 (stereo not given) | -0.8 | 0.9% |
| COc1ccc(C(C)=O)cc1 | 0.1 | -0.3% |
| COC(=O)c1ccc(N2C(c3cccc(OC)c3)=Cc3ccc(F)cc3C2c2c(C)[nH]c3ccccc23)cc1 (stereo not given) | 0.0 | 20.4% |
| Cc1ccc(S(=O)(=O)N2C[C@H]3[C@H]4C(=O)N(Cc5ccccc5)C(=O)[C@H]4CC(=O)[C@H]3[C@@H]2c2ccccc2F)cc1 | 0.7 | -1.4% |
| Clc1cccc(CNc2ccn3nc(-c4cccc(OCc5ccccc5)c4)cc3n2)c1 | -0.8 | 4.5% |
| CC(C)C[C@H]1CNC(=O)C(=O)N1C[C@@H]1CCCN1C[C@H](Cc1ccccc1)N1C[C@H](Cc2ccccc2)N(CC2CCCCC2)C(=O)C1=O | -1.0 | 1.4% |
| O=C1NC[C@@H](CCCCN2C[C@H](Cc3ccccc3)N(CCc3ccc(O)cc3)C(=O)C2=O)N(Cc2ccccc2)C1=O | -0.4 | 5.0% |
| CC(=O)Nc1cncc(-c2cccc(N(C)C)c2)n1 | -0.8 | -6.0% |
| Cn1nc(C2CC2)cc1NC(=O)C1(C)CCN1C(=O)Cc1ccc(-c2ccccc2)cc1 (stereo not given) | 0.3 | -2.4% |
| COc1cccc(C(O)c2nc(-c3cc(F)cc(F)c3)cs2)c1 (stereo not given) | -0.5 | 0.3% |
| COC(=O)[C@H](C)NS(=O)(=O)C1CC1 | -0.6 | 0.2% |
| CN1C=Nc2c(ncn2C2CCC(CO)O2)C1O (stereo not given) | -0.5 | 1.0% |
| C=C1C=C(C)n2ncc(C(=O)Nc3ccccc3C(=O)OC)c2N1 | -0.7 | -14.3% |
| Cc1cc2c(s1)c1cnn(CC(=O)N3CCOCC3)c(=O)c1n2C | -0.3 | 4.2% |

Later entries.
| Structure | TRPML1 agonist | ClpP mod |
| --- | --- | --- |
| CC1(C(=O)NS(=O)(=O)c2ccc(F)cc2F)CCN1C(=O)CC(c1ccccc1)c1ccccc1 (stereo not given) | -0.7 | 1.2% |
| COc1ccc(-c2nc3c(C)cc(Br)cn3c2Cc2ccc(C)cc2)cc1OC | 0.2 | -4.1% |
| COc1ncc(-c2ccc(N3C(c4ccc([N+](=O)[O-])cc4)=Cc4ccccc4C3CC(C)=O)cc2)cn1 (stereo not given) | 0.3 | 0.7% |
| O=C(Cc1ccc(Cl)cc1)NO | -0.6 | -1.5% |
| CN(C)c1ccc(-c2csc(C(O)c3ccc(F)cc3)n2)cc1 (stereo not given) | -0.7 | -4.6% |
| CCCCNC(=O)C[C@@H]1C[C@@]2(C(=O)OCC)CCCC=C2N(Cc2ccco2)C1=O | -0.6 | -0.2% |
| CCCCN(C)c1c(C)nc2ccc(C(=O)N(C)CCN(C)C)cn12 | 0.1 | -0.6% |
| COc1ccc(S(=O)(=O)NC(=O)C2(C)CCN2C(=O)Cc2ccc(C(C)(C)C)cc2)cc1 (stereo not given) | -0.9 | 1.6% |
| COc1ccc(Cl)cc1Cn1c(C)c(C(=O)N(C)Cc2ccc(F)cc2)sc1=O | -1.0 | -2.1% |
| CC(C)CCNC(=O)[C@@H](Cc1ccccc1)NC(=O)CC[C@H]1O[C@@H](n2ccc(=O)[nH]c2=O)[C@H](O)[C@@H]1O | -0.3 | -3.1% |
| CC(=O)Nc1cc(-c2ccc(N(C)C)cc2)cn2c(-c3ccc(F)c(Cl)c3)cnc12 | 12.5 | ? |
| O=C1NC[C@H](CCCCN2C[C@H](Cc3ccccc3)N(CCC3CCCCC3)C(=O)C2=O)N(CC2CCCCC2)C1=O | -1.0 | -2.3% |
| CCCNC(=O)C1(C)CCN(Cc2ccc(-n3ccnc3)cc2)C1 (stereo not given) | -0.2 | 0.2% |
| COc1ccccc1CC1(C)C(=O)Nc2ccc(OC(F)(F)F)cc21 (stereo not given) | 1.0 | 1.5% |
| O=C(NCc1cccnc1)c1cc(C2CCCCN2C(=O)OCCF)on1 (stereo not given) | -0.6 | 0.8% |

(listing goes on)
| Structure | TRPML1 agonist | ClpP mod |
| --- | --- | --- |
| Cc1cc2oc(=O)cc(CN(C)Cc3ccccc3)c2cc1C | -0.8 | -4.7% |
| O=C1c2ccccc2C(c2nnnn2-c2ccc3c(c2)OCCO3)N1CCc1ccccc1F (stereo not given) | -0.7 | 0.1% |
| CCCCC[C@H](C)N1C[C@@H](COCc2ccccc2)Oc2cc(N3CCC[C@H]3CO)ccc2S1(=O)=O | -0.5 | ? |
| CC(=O)c1cccc(-c2cnc3c(NC=O)cc(-c4ccc(F)cc4)cn23)c1 | 0.5 | -20.1% |

Screens: PubChem BioAssay, National Center for Advancing Translational Sciences (NCATS)
